rRNA inh HTS – selective bacterial rRNA inhibition in E. coli; hit rate 1.6% among 350,000; E. coli WT GFP vs humanized-ribosome RFP mutants, fluorescence, 24 h; stronger effect = lower value; DMSO median 0, no signal -100; GFP signal change (wild-type ribosome), % (concentration not given with the values);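 active = significant combined selectivity score with lowered wild-type GFP, culture density cut under 30%, mutant RFP and density less affected; inactive = any of these conditions unmet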; note: one replicate is shown; some compounds called inactive have numbers as strong as hits
ALR inh – human ALR oxidase inhibition via reduced H2O2 | purified ALR, DTT oxidation, H2O2 HRP-luminol luminescence | inhibition, % (test concentration not listed) | hit rate 3.8% among 290,000 | AID 485317;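 active = mean and each replicate at 75% or more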;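 note: stock transfer was 7.5 nL into about 7.5 µL; 0% = neutral wells and 100% = wells with inactivated enzyme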
Target sequence (P55789 whole entry, looked up): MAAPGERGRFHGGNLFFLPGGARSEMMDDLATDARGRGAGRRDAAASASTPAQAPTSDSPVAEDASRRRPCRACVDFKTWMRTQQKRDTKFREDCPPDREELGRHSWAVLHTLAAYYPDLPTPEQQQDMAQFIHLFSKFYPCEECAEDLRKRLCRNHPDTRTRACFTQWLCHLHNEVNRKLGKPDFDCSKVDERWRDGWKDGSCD
Beta apoptosis – beta cell apoptosis inhibition; AID 435005; hit rate 0.8% among 300,000; protection from apoptosis, % (concentration not given with the values); INS-1E cytokine-induced death, ATP luminescence, 48 h; percent of positive-control rescue, neutral wells zero;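 active = all replicates at 75% or more, or half of them and the mean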;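 note: 0% = cytokine-treated negative control wells and 100% = positive control rescue; higher means more ATP so stronger rescue from cytokine killing; wells of about 40 µL received 100 nL stock; the first replicate is given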
FGF22 binding – binders of recombinant human FGF22 by thermal shift | Q9HCT0 | SYPRO orange fluorescence; percent of sucrose octasulfate shift, DMSO zero | calls only at 9.99 µM | hit rate 1.5% among 340,000 | AID 651658;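 active = melting point raised past a set limit in the mean and every replicate; three in four hits are not shown here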
Target sequence (Q9HCT0 whole entry, looked up): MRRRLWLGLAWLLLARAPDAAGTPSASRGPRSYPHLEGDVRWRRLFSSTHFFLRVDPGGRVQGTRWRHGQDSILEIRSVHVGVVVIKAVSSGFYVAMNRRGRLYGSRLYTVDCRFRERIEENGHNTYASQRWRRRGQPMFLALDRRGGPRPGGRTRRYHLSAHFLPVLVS
AF4-AF9 inh – MLL-AF4/AF9 protein interaction inhibition; AlphaScreen, biotin-AF4 peptide binding to FLAG-AF9; inhibition, % at 10 µM; AID 651704; hit rate 0.47% among 350,000;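 active = every replicate reaching a set inhibition limit, whatever the replicate mean, cut at about 25% in these data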;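 note: 0% = plate neutral control median and 100% = total signal loss; the record names both 10 and 1 µM as test concentration; the first replicate is given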
Target sequence (P42568 whole entry, looked up): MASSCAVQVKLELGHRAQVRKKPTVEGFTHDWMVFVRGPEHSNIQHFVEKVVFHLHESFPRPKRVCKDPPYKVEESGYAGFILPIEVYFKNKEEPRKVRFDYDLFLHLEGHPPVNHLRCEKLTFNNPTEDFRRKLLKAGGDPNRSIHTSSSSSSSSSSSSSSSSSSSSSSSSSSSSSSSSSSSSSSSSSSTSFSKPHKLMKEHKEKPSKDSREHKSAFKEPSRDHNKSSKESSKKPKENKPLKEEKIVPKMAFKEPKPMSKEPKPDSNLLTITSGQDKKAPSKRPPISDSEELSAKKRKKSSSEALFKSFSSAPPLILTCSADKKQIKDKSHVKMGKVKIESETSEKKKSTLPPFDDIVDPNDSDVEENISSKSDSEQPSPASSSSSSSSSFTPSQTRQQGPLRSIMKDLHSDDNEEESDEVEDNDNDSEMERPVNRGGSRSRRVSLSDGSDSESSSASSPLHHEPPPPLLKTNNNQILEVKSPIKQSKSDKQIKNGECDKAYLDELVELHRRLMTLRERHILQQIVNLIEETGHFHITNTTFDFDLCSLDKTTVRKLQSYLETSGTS
RanGTP-Impb inh – disruptors of Ran-importin-beta complex formation – biochemical, FRET, CFP-Ran, YFP-importin-beta, homogeneous, primary screen. cell-free CFP-Ran/YFP-importin-beta FRET ratio. hit rate 1.1% among 300,000. inhibition, % (test concentration not listed);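 active = most replicates above 15%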;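 note: 0% = DMSO wells and 100% = Ran loaded with GDP instead of GTP; wells of about 40 µL received 100 nL stock; the first replicate is given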
T cruzi inh – T. cruzi replication inhibition. T. cruzi beta-gal in NIH3T3, luminescence, 90 h. AID 1885. hit rate 1.4% among 300,000. inhibition, % (no concentration beside the values);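 active = mean inhibition across valid replicates above about 55%, limit read from the data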;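 note: signal also drops with host cell toxicity which is not excluded here; 0% = plate median of DMSO wells and 100% = zero luminescence signal; higher percent means less beta-gal luminescence so fewer parasites; stock transfer was 50 nL into about 50 µL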
Calb FLC – C. albicans growth modulation with fluconazole; C. albicans CaCi-2 (fluconazole-resistant clinical isolate) + fluconazole, Alamar Blue growth, 48 h; hit rate 0.57% among 300,000; growth inhibition, % (concentration not given with the values); AID 1979;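 active = most replicates above 75%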;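 note: all wells also contain fluconazole at 8 µg/ml as a sub-toxic cotreatment; 0% = median of DMSO wells and 100% = median of geldanamycin control wells; wells of about 8 µL received 7.5 nL stock; the first replicate is given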
rRNA inh HTS OD600 – also measured in rRNA inh HTS; calls as there; OD600 change, %; measured here: OD600 growth;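 optical density of the mix in the first replicate; 0 = DMSO median and -100 = no signal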
rRNA inh HTS RFP – further read-out of rRNA inh HTS, marked with its call; RFP signal change, %; measured here: RFP humanized mutant strains;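 first replicate; 0 = DMSO median and -100 = no signal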
An asterisk follows results filed as active. Not all compounds are listed. The share of hits here may be higher or lower than overall.

Results for CC(C)N1C(=O)CCC1C(=O)NCc1ccco1 (stereo not drawn) ?
rRNA inh HTS: -0.8; ALR inh: 2.1; Beta apoptosis: -3.4; FGF22 binding: inactive; AF4-AF9 inh: -1.7; RanGTP-Impb inh: -5.0; T cruzi inh: -12.1; Calb FLC: -3.0; rRNA inh HTS OD600: 9.4; rRNA inh HTS RFP: 0.0

What do the screens show for `CN(Cc1ccc(C#CCCO)cc1)CC1CCCN(CCc2ccc(Cl)cc2)C1` (stereo not drawn)?
rRNA inh HTS: -7.5; FGF22 binding: inactive; AF4-AF9 inh: 1.0; RanGTP-Impb inh: -4.1; T cruzi inh: 34.9; Calb FLC: -13.3; rRNA inh HTS OD600: -9.9; rRNA inh HTS RFP: 0.9

What do the screens show for `CN(Cc1cccs1)C(=O)c1ccc(S(=O)(=O)N2CCCCC2)cc1`?
rRNA inh HTS: -4.2; ALR inh: -0.4; Beta apoptosis: 3.1; FGF22 binding: inactive; AF4-AF9 inh: -2.4; RanGTP-Impb inh: -1.9; T cruzi inh: 3.6; Calb FLC: -2.1; rRNA inh HTS OD600: -2.4; rRNA inh HTS RFP: -1.8

How did COc1ccccc1C(=O)Nc1nnc(-c2ccc(F)cc2)s1 do in these assays?
rRNA inh HTS: -3.9; ALR inh: 1.8; Beta apoptosis: 1.2; FGF22 binding: inactive; AF4-AF9 inh: 0.0; RanGTP-Impb inh: 6.2; T cruzi inh: 5.1; Calb FLC: -0.8; rRNA inh HTS OD600: 6.8; rRNA inh HTS RFP: -4.9

What do the screens show for `CCOc1cccc(C2c3c(oc4ccccc4c3=O)C(=O)N2c2ccccn2)c1` (stereo not drawn)?
rRNA inh HTS: 7.7; ALR inh: -18.5; Beta apoptosis: -2.2; AF4-AF9 inh: -2.8; RanGTP-Impb inh: -3.4; T cruzi inh: 12.5; Calb FLC: 9.6; rRNA inh HTS OD600: 10.1; rRNA inh HTS RFP: 1.6

What do the screens show for `CCOc1ccccc1-n1c(SCC(=O)N2CCOCC2)nnc1-c1ccccn1`?
ALR inh: -14.3; Beta apoptosis: -7.6; RanGTP-Impb inh: 0.6; T cruzi inh: -4.4; Calb FLC: 3.1

What do the screens show for `COc1cc([N+](=O)[O-])ccc1N1C(=O)CC(Sc2nccc(C)n2)C1=O` (stereo not drawn)?
rRNA inh HTS: 6.2; ALR inh: -10.1; Beta apoptosis: -2.8; FGF22 binding: inactive; AF4-AF9 inh: -2.9; RanGTP-Impb inh: 0.0; T cruzi inh: -0.9; Calb FLC: 5.5; rRNA inh HTS OD600: 9.0; rRNA inh HTS RFP: 0.9

Results for CCN(C(=O)COC(=O)c1ccccc1O)c1cccc2ccccc12 ?
rRNA inh HTS: -35.7; Beta apoptosis: -0.5; FGF22 binding: inactive; AF4-AF9 inh: -0.9; rRNA inh HTS OD600: -43.5; rRNA inh HTS RFP: -12.9

Results for Clc1ccc(OCCn2cnc3ccccc32)cc1 ?
ALR inh: -1.1; Beta apoptosis: -7.8; RanGTP-Impb inh: -2.0; T cruzi inh: -8.6; Calb FLC: -8.6

How did CC1C=CCC2C(=O)N(c3cccc(C(=O)Nc4ccc(Br)cc4)c3)C(=O)C12 (stereo not drawn) do in these assays?
rRNA inh HTS: -21.8; ALR inh: 0.6; Beta apoptosis: 3.9; FGF22 binding: inactive; AF4-AF9 inh: -0.6; RanGTP-Impb inh: 2.3; T cruzi inh: 39.0; Calb FLC: -8.5; rRNA inh HTS OD600: -23.4; rRNA inh HTS RFP: -2.6

Results for CC1CCCCN1C(=S)NCc1ccccc1 (stereo not drawn) ?
rRNA inh HTS: 4.4; ALR inh: -1.5; Beta apoptosis: -5.5; FGF22 binding: inactive; AF4-AF9 inh: -10.3; RanGTP-Impb inh: 9.3; T cruzi inh: -0.5; Calb FLC: -2.2; rRNA inh HTS OD600: 14.9; rRNA inh HTS RFP: 4.6

Results for O=C(O)c1ccc(NS(=O)(=O)c2ccc(N3CCCC3)c([N+](=O)[O-])c2)cc1 ?
rRNA inh HTS: 7.2; Beta apoptosis: 0.9; FGF22 binding: inactive; AF4-AF9 inh: -0.9; RanGTP-Impb inh: -0.9; T cruzi inh: -4.3; Calb FLC: -3.6; rRNA inh HTS OD600: -3.5; rRNA inh HTS RFP: 0.3

Results for CC(C)NS(=O)(=O)c1cc(F)ccc1CN1C(=O)c2cccnc2C1=O ?
rRNA inh HTS: 4.2; ALR inh: -8.6; Beta apoptosis: 1.1; FGF22 binding: inactive; AF4-AF9 inh: 0.0; RanGTP-Impb inh: 6.6; T cruzi inh: -16.0; Calb FLC: -3.1; rRNA inh HTS OD600: 8.6; rRNA inh HTS RFP: -3.0

How did O=C(O)c1ccc(C=C(c2nc3ccccc3s2)c2nc3ccccc3s2)cc1 do in these assays?
rRNA inh HTS: -26.9; ALR inh: 48.3; Beta apoptosis: -0.7; FGF22 binding: inactive; AF4-AF9 inh: -1.8; RanGTP-Impb inh: -0.7; T cruzi inh: -13.7; Calb FLC: -3.3; rRNA inh HTS OD600: -36.5; rRNA inh HTS RFP: -5.1

What do the screens show for `O=C1CCCCN1CCCC(=O)N1CCCC(Nc2ccc(F)c(F)c2)C1` (stereo not drawn)?
rRNA inh HTS: 0.8; ALR inh: 24.5; Beta apoptosis: 0.1; FGF22 binding: inactive; AF4-AF9 inh: 1.4; RanGTP-Impb inh: 4.3; T cruzi inh: 23.0; Calb FLC: -0.5; rRNA inh HTS OD600: -5.9; rRNA inh HTS RFP: -1.2

Next part; it opens with the 2 that closed the last part.
How did O=C(O)c1ccc(C=C(c2nc3ccccc3s2)c2nc3ccccc3s2)cc1 do in these assays?
rRNA inh HTS: -26.9; ALR inh: 48.3; Beta apoptosis: -0.7; FGF22 binding: inactive; AF4-AF9 inh: -1.8; RanGTP-Impb inh: -0.7; T cruzi inh: -13.7; Calb FLC: -3.3; rRNA inh HTS OD600: -36.5; rRNA inh HTS RFP: -5.1

What do the screens show for `O=C1CCCCN1CCCC(=O)N1CCCC(Nc2ccc(F)c(F)c2)C1` (stereo not drawn)?
rRNA inh HTS: 0.8; ALR inh: 24.5; Beta apoptosis: 0.1; FGF22 binding: inactive; AF4-AF9 inh: 1.4; RanGTP-Impb inh: 4.3; T cruzi inh: 23.0; Calb FLC: -0.5; rRNA inh HTS OD600: -5.9; rRNA inh HTS RFP: -1.2

How did CCOC(=O)c1cc(S(=O)(=O)Nc2ccc(OC)cc2OC)cn1C do in these assays?
rRNA inh HTS: 2.9; ALR inh: -3.0; Beta apoptosis: 5.8; FGF22 binding: inactive; AF4-AF9 inh: 0.4; RanGTP-Impb inh: 5.6; T cruzi inh: 8.0; Calb FLC: -2.0; rRNA inh HTS OD600: 1.1; rRNA inh HTS RFP: -0.2

How did CN(C)S(=O)(=O)c1cc(C(=O)OCCn2cnc3c2c(=O)n(C)c(=O)n3C)ccc1Cl do in these assays?
rRNA inh HTS: -2.0; ALR inh: -1.6; Beta apoptosis: -3.8; AF4-AF9 inh: -0.6; RanGTP-Impb inh: 2.7; T cruzi inh: -2.2; Calb FLC: -5.2; rRNA inh HTS OD600: -2.5; rRNA inh HTS RFP: -1.0

Results for O=C(COc1ccccc1[N+](=O)[O-])Nc1cccc(S(=O)(=O)NC2=NCCCCC2)c1 ?
rRNA inh HTS: -0.8; ALR inh: -8.3; Beta apoptosis: 0.0; FGF22 binding: inactive; AF4-AF9 inh: -0.1; RanGTP-Impb inh: 0.5; T cruzi inh: 0.1; Calb FLC: -13.0; rRNA inh HTS OD600: 0.1; rRNA inh HTS RFP: 8.8

How did S=C(NNC(=S)NC1CC2CCC1C2)NC1CC2C=CC1C2 (stereo not drawn) do in these assays?
rRNA inh HTS: -24.6; ALR inh: 10.1; FGF22 binding: inactive; RanGTP-Impb inh: -3.2; T cruzi inh: 1.5; Calb FLC: 1.9; rRNA inh HTS OD600: -31.5; rRNA inh HTS RFP: 5.8

Results for CCC1(c2ccc(F)cc2)NC(=O)N(CC(=O)N2CCc3ccccc32)C1=O (stereo not drawn) ?
rRNA inh HTS: -6.9; ALR inh: -7.1; Beta apoptosis: -1.1; FGF22 binding: inactive; AF4-AF9 inh: -0.3; rRNA inh HTS OD600: -3.6; rRNA inh HTS RFP: -1.3

What do the screens show for `C[C@H](NC(=O)[C@@H]1Cc2ccccc2CN1)C(=O)NC1CCCC1`?
rRNA inh HTS: -1.5; ALR inh: -1.6; Beta apoptosis: -2.4; FGF22 binding: inactive; AF4-AF9 inh: -6.7; RanGTP-Impb inh: 3.5; T cruzi inh: -12.6; Calb FLC: -9.4; rRNA inh HTS OD600: -0.7; rRNA inh HTS RFP: -2.3

Results for COC(=O)c1ccc(/C=N/NC(=S)NCCN2CCOCC2)cc1 ?
rRNA inh HTS: 16.1; ALR inh: 0.4; Beta apoptosis: -4.8; FGF22 binding: inactive; AF4-AF9 inh: -6.1; RanGTP-Impb inh: 4.4; T cruzi inh: -16.5; Calb FLC: 8.5; rRNA inh HTS OD600: 4.6; rRNA inh HTS RFP: 0.9

What do the screens show for `CCC(C)Sc1ccc([C@@H]2[C@H]3C(=O)N(CC)C(=O)[C@H]3[C@]3(C(=O)OC)CCCN23)cc1OC` (stereo partly drawn)?
rRNA inh HTS: -4.4; Beta apoptosis: -0.1; FGF22 binding: inactive; AF4-AF9 inh: 1.2; rRNA inh HTS OD600: -2.6; rRNA inh HTS RFP: 17.6

How did O=C(O)c1c2c(nc3ccccc13)/C(=C/c1cccc([N+](=O)[O-])c1)CCC2 do in these assays?
rRNA inh HTS: -1.2; ALR inh: 7.4; Beta apoptosis: -9.0; AF4-AF9 inh: 0.5; RanGTP-Impb inh: -0.5; T cruzi inh: -6.8; Calb FLC: 2.5; rRNA inh HTS OD600: 7.0; rRNA inh HTS RFP: -0.2

How did CN(C)CCNC(=O)CNC(=S)N(Cc1ccccc1)Cc1ccccc1F do in these assays?
rRNA inh HTS: 18.9; Beta apoptosis: 1.3; FGF22 binding: inactive; AF4-AF9 inh: -0.7; RanGTP-Impb inh: 0.1; T cruzi inh: 20.4; Calb FLC: 1.8; rRNA inh HTS OD600: 6.1; rRNA inh HTS RFP: 3.0

Results for CC(=O)Nc1nnc(SCC(=O)NCCOc2ccccc2)s1 ?
ALR inh: -0.8; Beta apoptosis: -0.9; RanGTP-Impb inh: 1.4; T cruzi inh: 11.4; Calb FLC: -5.0

What do the screens show for `COc1ccc(CN2CCN(Cc3c[nH]c4ccccc34)CC2CCO)c(F)c1` (stereo not drawn)?
rRNA inh HTS: 2.7; ALR inh: 0.0; FGF22 binding: inactive; AF4-AF9 inh: 10.3; RanGTP-Impb inh: -1.2; T cruzi inh: 2.3; Calb FLC: -18.9; rRNA inh HTS OD600: -4.3; rRNA inh HTS RFP: 3.9

How did COc1cccc(N(CC(=O)N2CCc3ccccc3C2)S(C)(=O)=O)c1 do in these assays?
ALR inh: -14.9; Beta apoptosis: -12.0; RanGTP-Impb inh: 4.9; T cruzi inh: -31.1; Calb FLC: 10.2

What do the screens show for `COc1cccc(CN=C2Nc3ccccc3CS2)c1`?
rRNA inh HTS: 13.3; ALR inh: 20.6; Beta apoptosis: 5.7; FGF22 binding: inactive; AF4-AF9 inh: 0.2; RanGTP-Impb inh: 1.5; T cruzi inh: 16.8; Calb FLC: -4.5; rRNA inh HTS OD600: 10.7; rRNA inh HTS RFP: 1.0

How did CN(C)c1cc(-c2ccc(C#N)cc2)oc(=O)c1Cl do in these assays?
rRNA inh HTS: 3.4; ALR inh: -4.3; Beta apoptosis: 0.2; FGF22 binding: inactive; AF4-AF9 inh: 0.6; RanGTP-Impb inh: -2.9; T cruzi inh: -3.3; Calb FLC: -11.5; rRNA inh HTS OD600: 6.1; rRNA inh HTS RFP: 0.7

High-throughput results as filed in PubChem BioAssay.
